Compound activity (PubChem)
Mtb bLac sens = beta-lactam sensitization of Mtb H37Rv. M. tuberculosis H37Rv growth with meropenem, percent inhibition; hits of this screen are not shown here. inhibition, % at 25 µM. 330,000 compounds, 0.27% hits. AID 434955;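 active = about 74% or more and at least 40 points above the plate without the antibiotic, then above 30% in a dose series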;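 note: growth measured after seven days incubation then overnight dye step; 0% = bacteria only wells and 100% = bacteria with antibiotic; twin plates without the antibiotic show which effects depend on it; some results filed as inactive read as strong as hits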
YopH inh = YopH (Yersinia) phosphatase inhibition | fluorescence Ex485/Em525 | inhibition, %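 (about 10 µM by stock and volumes)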 | 140,000 compounds, 0.16% hits;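 active = inhibition of 50% or more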;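 note: controls were vehicle for no effect and minimum signal wells for full effect; inactives centre near -20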
Mtb growth = M. tuberculosis H37Rv growth inhibitors, H37Rv strain (AID 1626). 220,000 compounds, 0.95% hits. inhibition, % at 10 µM, or IC50 in µM where a hit was titrated. M. tuberculosis H37Rv growth inhibition; higher % means a stronger effect;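 active = confirmed in a dose series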;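 note: bacteria incubated seven days before Alamar blue readout; 0% = bacteria only wells and 100% = bacteria with antibiotic wells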
RecA intein inh = Mtb RecA intein splicing inhibition; cell-free RecA intein splicing, fluorescence; inhibition, %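 (about 9 µM by stock and volumes)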; 290,000 compounds, 0.75% hits; in the data active = inhibition above about 30%;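 note: 0% = vehicle wells and 100% = reference inhibitor control wells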
Target sequence (P9WHJ3 whole entry, looked up): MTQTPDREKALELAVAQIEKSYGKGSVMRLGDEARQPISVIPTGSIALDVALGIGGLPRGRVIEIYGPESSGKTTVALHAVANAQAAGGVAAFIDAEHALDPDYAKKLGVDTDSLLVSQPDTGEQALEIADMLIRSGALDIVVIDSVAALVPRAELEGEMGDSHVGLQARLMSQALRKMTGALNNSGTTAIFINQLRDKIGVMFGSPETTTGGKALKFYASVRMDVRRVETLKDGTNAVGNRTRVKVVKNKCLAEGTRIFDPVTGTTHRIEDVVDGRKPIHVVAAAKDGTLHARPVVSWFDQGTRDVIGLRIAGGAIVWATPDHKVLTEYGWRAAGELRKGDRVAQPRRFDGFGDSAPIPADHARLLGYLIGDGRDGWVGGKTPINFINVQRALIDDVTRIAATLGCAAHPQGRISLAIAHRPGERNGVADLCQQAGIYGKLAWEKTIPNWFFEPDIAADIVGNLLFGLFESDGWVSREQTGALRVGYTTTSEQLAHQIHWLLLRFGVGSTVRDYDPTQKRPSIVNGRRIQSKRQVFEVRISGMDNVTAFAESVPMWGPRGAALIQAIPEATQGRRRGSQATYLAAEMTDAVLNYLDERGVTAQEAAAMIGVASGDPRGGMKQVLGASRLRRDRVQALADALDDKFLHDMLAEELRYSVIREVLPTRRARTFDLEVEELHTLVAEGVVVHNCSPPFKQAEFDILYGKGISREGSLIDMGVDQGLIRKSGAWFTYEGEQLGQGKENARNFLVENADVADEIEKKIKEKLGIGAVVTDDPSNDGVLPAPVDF
Arbovirus anti = arbovirus infection inhibition; arbovirus infection cell-based antiviral screen; AID 1251; 200,000 compounds, 0.37% hits; inhibition, % at 10 µM;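 active = inhibition from about 30%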;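 note: bluetongue infection of BSR cells; cell survival read as ATP light after 72 h; 0% = infected wells without compound and 100% = uninfected wells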
Arbovirus anti repeat = also measured in Arbovirus anti; calls as there; inhibition, %; measured here: 10K subset replicate screen; many hits read low in the repeat;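 first of two repeat runs on a subset; 0% = infected and 100% = uninfected wells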
* marks the source's active call; other numbers are inactive results; . = no result given. Only part of the results is shown (hit frequency here may not be typical).

Start of the data: the first 4 compounds as a preview:
SMILES	Mtb bLac sens	YopH inh	Mtb growth	RecA intein inh	Arbovirus anti	others
Cc1ccc(-n2c(=S)sc3c(=O)n(-c4ccc(F)cc4)c(SCC(=O)O)nc32)cc1C	-12	.	.	-15	.
COc1ccc2c(C)c(CCC(=O)N3C[C@H]4C[C@@H](C3)c3cccc(=O)n3C4)c(=O)oc2c1	-4	.	.	1.9	.
Cc1oc2c(CN3CCCC3)c(O)ccc2c(=O)c1-c1ccc(Br)cc1	6	-6	-5%	-2.0	4
C=CCC1(CC=C)CCCN1Cc1nc(COc2ccccc2)no1	4	.	0%	10	.

All compounds of this part (from the top)
SMILES	Mtb bLac sens	YopH inh	Mtb growth	RecA intein inh	Arbovirus anti	others
Cc1ccc(-n2c(=S)sc3c(=O)n(-c4ccc(F)cc4)c(SCC(=O)O)nc32)cc1C	-12	.	.	-15	.
COc1ccc2c(C)c(CCC(=O)N3C[C@H]4C[C@@H](C3)c3cccc(=O)n3C4)c(=O)oc2c1	-4	.	.	1.9	.
Cc1oc2c(CN3CCCC3)c(O)ccc2c(=O)c1-c1ccc(Br)cc1	6	-6	-5%	-2.0	4
C=CCC1(CC=C)CCCN1Cc1nc(COc2ccccc2)no1	4	.	0%	10	.
Cn1c(CO)cnc1SCC(=O)c1ccc(Br)cc1	-6	.	-2%	-8.6	2
CN(Cc1nc(Cc2cccc(F)c2)no1)CC1CCOCC1	-7	.	4%	-0.5	1
CCOC(=O)/C(C#N)=C/c1ccc(-c2ccsc2C(=O)OC)o1	7	-34	8%	-12	-9
CCC1CCCCN1CCCNC(=O)c1c(O)nc2c(C)cccn2c1=O (stereo not drawn)	8	.	.	0.1	.
CN(Cc1ccon1)Cc1cn[nH]c1-c1ccc(-c2ccccc2)cc1	3	.	22%	2.9	-2
CCOC(=O)C1CCN(c2c(NCCC(C)C)c(=O)c2=O)CC1	-9	.	-3%	-0.2	.
Cc1csc2ncc(C(=O)N3CCc4ccccc43)c(=O)n12	-2	-27	-6%	1.7	.
CN(C)S(=O)(=O)c1ccc(Cl)c(NC(=O)CSc2nnnn2-c2ccc(O)cc2)c1	.	.	-3%	0.3	1
CCOc1ccc(Br)cc1S(=O)(=O)Nc1cccnc1	2	.	.	-1.8	.
O=C(CCN1C(=O)c2ccccc2C1=O)Nn1cnnc1	-3	-25	-5%	-2.7	-1
CCCNS(=O)(=O)c1ccc(CCC(=O)Nc2ccc3c(c2)OCCO3)cc1	-9	-33	18%	5.9	-3
COc1cc(OC)c(C(=O)NC2CC(C)(C)NC(C)(C)C2)cc1OC	-10	-35	0%	-0.6	2
O=C(Cn1c(=O)cnc2ccccc21)N1CCN(S(=O)(=O)c2cccc([N+](=O)[O-])c2)CC1	-6	.	.	-0.6	.
COc1cccc(COC(=O)c2ccc(S(=O)(=O)N3CCC(C)CC3)cc2)c1OC	77	.	.	6.7	.
Cc1nn(-c2ccccc2)nc1C(=O)c1c(C)[nH]n(-c2ccccc2)c1=O	79	.	8.3µM*	1.1	.
CC1CCCC(C)N1C(=O)CSc1nnc(NC(=O)Cc2cccs2)s1 (stereo not drawn)	-4	-14	-7%	2.5	11
CC(=O)Oc1ccccc1C(=O)Nc1ccccc1C(=O)N1CCCCC1	1	.	.	4.0	.
CSc1cc(-c2ccccc2)n(Cc2ccc(Cl)cc2Cl)c(=O)c1C#N	-8	-16	-5%	2.2	-5
O=[N+]([O-])c1ccc(-c2nnc(-c3ccccc3)c(N3CCOCC3)n2)cc1	-5	-20	-1%	2.0	3
C=C1CN(CC(=O)OC)S(=O)(=O)c2ccccc21	-8	.	-5%	1.7	.
COc1cc(/C=N/N=C/c2c[nH]c(=O)c(C#N)c2Nc2ccccc2)ccc1O	-8	.	-5%	0.7	.

(cont.)
SMILES	Mtb bLac sens	YopH inh	Mtb growth	RecA intein inh	Arbovirus anti	others
CCOC(=O)c1nc2sc3c(c2c(=O)[nH]1)CCC(C)C3 (stereo not drawn)	98	.	10µM*	-0.3	.
O=C(O)c1cc2n(n1)C(C(F)(F)F)CC(c1ccccc1)N2 (stereo not drawn)	3	-18	-8%	-2.3	1
COCCn1c(-c2ccccc2)nc2ccccc21	-5	-10	9%	0.4	2
CCOC(=O)[C@@H]1[C@H]2COc3ccc(Br)cc3[C@@H]2N2C(=O)N(c3ccc(C(F)(F)F)cc3)C(=O)[C@@]12C	-3	.	.	7.0	.
CCN(CC)c1ccc2c(cc1=O)[C@@H](NC)CCc1cc(OC)c(OC)c(OC)c1-2	7	.	.	1.1	.
Cc1[nH][nH]c(=O)c1C(c1ccc(-c2ccc(Cl)c(Cl)c2)o1)c1c(C)[nH][nH]c1=O	73	-18	61%	97*	4
O=C(NN1CCOCC1)c1ccc([N+](=O)[O-])cc1	-7	.	.	0.7	.
Cc1ccccc1-n1c(SCC(=O)c2c(N)n(C)c(=O)n(C)c2=O)nnc1-c1cccnc1	2	-24	-2%	0.7	-1
Cc1cc(C)c(C(=O)COC(=O)c2ccc(NC(=O)CC#N)cc2)cc1C	2	.	4%	0.0	.
O=C(CSc1nnc(-c2csc3c2CCCC3)o1)Nc1ccccc1	2	-38	24%	2.9	-8
COc1cc(OC)cc(C(=O)Nc2nc(CC(=O)NCc3ccccc3OC)cs2)c1	-10	.	.	0.6	.
CC1CCCCC1NC(=O)c1nnc(Cc2ccc(Cl)cc2)o1 (stereo not drawn)	3	-32	.	3.1	1	Arbovirus anti repeat=-3
CCn1c2ccccc2c2cc(NC(=O)Cc3ccc(S(=O)(=O)N4CCOCC4)s3)ccc21	-9	-85	8%	2.6	-12
CN1CCN(C(=O)c2ccc(CS(=O)Cc3ccc(Cl)cc3)o2)CC1 (stereo not drawn)	-2	.	.	3.2	.
Cc1ccccc1OCC(O)CN1C(=O)c2ccccc2C1=O (stereo not drawn)	-9	.	.	-1.8	.
CCOC(=O)CSc1ccc(S(=O)(=O)N2CCC(C)CC2)cc1[N+](=O)[O-]	0	-23	3%	-0.3	3
O=C(NCCCN1CCCC1)c1ccc2c(c1)N(Cc1ccccc1F)C(=O)c1ccccc1S2=O (stereo not drawn)	-1	.	.	0.6	.
COc1cccc(C2C(C(=O)c3ccc(C)o3)=C(O)C(=O)N2c2cc(C)on2)c1 (stereo not drawn)	3	.	.	-0.5	.
COc1c(OC(C)=O)ccc(/C=C/c2ccc3cccc(OCc4ccccc4)c3n2)c1[N+](=O)[O-]	1	-27	12%	19	-4
COC(=O)/C=C1/SC(=Nc2ccc(Cl)c(Cl)c2)NC1=O	6	.	5%	0.8	.
O=C(C[n+]1cc(-c2ccc(Cl)c(Cl)c2)n2c1CCC2)c1cccs1	-6	.	4%	3.6	.
COc1ccccc1C(=O)N1CCCN(C(=O)c2ccccc2OC)CC1	-4	19	-3%	-0.5	-1
COc1ccc(-c2ccc(OC)c([C@H]3[C@H]4C=CC[C@@H](C)[C@@H]4C(=O)N3Cc3ccccc3)c2)cc1	-4	.	16%	1.8	.
NC(=O)c1ccccc1NC(=O)CCCN1C(=O)CCC1=O	17	-31	1%	0.2	1
CCOc1ccc(NC(=O)CSc2nnc(-c3ccccc3)n2N)cc1	61	2	63%	-0.4	-1	Arbovirus anti repeat=5

The final three compounds of the part before are carried over, then new ones follow:
SMILES	Mtb bLac sens	YopH inh	Mtb growth	RecA intein inh	Arbovirus anti	others
COc1ccc(-c2ccc(OC)c([C@H]3[C@H]4C=CC[C@@H](C)[C@@H]4C(=O)N3Cc3ccccc3)c2)cc1	-4	.	16%	1.8	.
NC(=O)c1ccccc1NC(=O)CCCN1C(=O)CCC1=O	17	-31	1%	0.2	1
CCOc1ccc(NC(=O)CSc2nnc(-c3ccccc3)n2N)cc1	61	2	63%	-0.4	-1	Arbovirus anti repeat=5
COc1ccc(/C=N/N=C/c2ccc(OC)c(O)c2)cc1O	-7	-22	-9%	-1.1	3
COc1ccc(NC(=O)CN(C)S(=O)(=O)c2ccc3[nH]c(=O)oc3c2)cc1	0	.	.	-2.1	.
CC(=O)N1c2ccc(S(=O)(=O)N3CCCCC3)cc2CC1C(=O)NCc1cccc(Cl)c1 (stereo not drawn)	1	.	.	0.4	.
CCCOC(=O)c1ccc(NC(=O)c2cc(Cl)ccc2OC)cc1	-4	-8	-2%	-0.7	7
COc1ccccc1CN1CC(C(=O)NCCn2nc(C)cc2C)CCC1=O (stereo not drawn)	1	.	.	-0.8	.
Cc1cc(Nc2ccccc2)n(-c2ccccc2)n1	6	-15	1%	1.8	-3
CCN(CC)C(=O)Cn1c(=O)n(Cc2ccccc2Cl)c2c1c(=O)n(C)c(=O)n2C	-7	-12	-4%	-0.1	.
CCOC(=O)Cc1nc2ccccc2o1	4	.	-5%	.	4
CN1C(=O)[C@H]2[C@@H](/C=C/c3ccccc3)N3C(=O)CN(Cc4ccccn4)C(=O)[C@@]3(C)[C@H]2C1=O	-3	.	.	-1.1	.
COc1cccc(C(=O)Nc2cc(C(=O)NCc3ccc(C)cc3)ccc2N2CCC3(CC2)CC(c2ccccc2)=NO3)c1	-9	.	.	1.7	.
Cc1nc(N)c(C#N)c(-c2ccc3c(c2)OCO3)c1C	-4	.	.	1.7	.
COc1cccc(OC)c1C(=O)Nc1cc(Cl)ccc1N1CCOCC1	-11	-39	11%	3.0	-2
Cc1c(CNC(=O)c2nn3c(c2Cl)NC(c2ccccc2)CC3C(F)(F)F)cnn1C (stereo not drawn)	8	-22	0%	1.7	4
Cc1ccc(C)c(Cn2c(C(=O)OC(C)C)cc3c2ccn3C)c1	-6	7	-1%	1.4	-1
COC(=O)c1ccccc1C(=O)N1CCC(CCC(=O)NC2CC2)CC1	-1	.	.	-0.5	.
O=C1S/C(=C\c2ccc(N3CCOCC3)o2)C(=O)N1Cc1ccc(F)cc1	1	-36	-6%	.	-35
c1ccc(CN2CCOCCOCCOCC2)cc1	-8	.	-2%	0.0	.
O=C(O)COc1c(-c2ccc(Cl)cc2)oc2ccccc2c1=O	71	.	-1%	-2.5	7
COc1ccc(Cl)cc1S(=O)(=O)Nc1noc2ccccc12	0	.	.	1.0	.
O=C(CCc1ccc(O)c(O)c1)N/N=C/c1ccc2c(c1)OCO2	6	.	.	-6.6	.
CC(Oc1ccc(Cl)cc1Cl)C(=O)N(C)c1ccccc1 (stereo not drawn)	1	.	-3%	1.6	-3
CCN(CC)c1ccc(/C=N/n2c(C)nc3ccccc3c2=O)cc1	4	.	.	2.2	.
Fc1ccc(-n2cc(CNCCc3ccncc3)c(-c3ccccc3Cl)n2)cc1	-2	.	11%	0.7	-9

Among those listed so far, these have a nitro group on carbon:
SMILES	Mtb bLac sens	YopH inh	Mtb growth	RecA intein inh	Arbovirus anti	others
O=C(Cn1c(=O)cnc2ccccc21)N1CCN(S(=O)(=O)c2cccc([N+](=O)[O-])c2)CC1	-6	.	.	-0.6	.
O=[N+]([O-])c1ccc(-c2nnc(-c3ccccc3)c(N3CCOCC3)n2)cc1	-5	-20	-1%	2.0	3
O=C(NN1CCOCC1)c1ccc([N+](=O)[O-])cc1	-7	.	.	0.7	.
CCOC(=O)CSc1ccc(S(=O)(=O)N2CCC(C)CC2)cc1[N+](=O)[O-]	0	-23	3%	-0.3	3
COc1c(OC(C)=O)ccc(/C=C/c2ccc3cccc(OCc4ccccc4)c3n2)c1[N+](=O)[O-]	1	-27	12%	19	-4
